# Screening results as filed in PubChem BioAssay.
# N370S GC: inhibitors or activators of N370S glucocerebrosidase for Gaucher disease. AID 2101. N370S GC spleen homogenate, 4MU-glucoside fluorescence. Potency, µM (highest dose often 59.4 µM), without a hit: top-dose activity change, negative = inhibition, most hits filed as inhibitors. P04062. actives 0.092% (n = 330,000);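 further: 0% = full enzyme activity and -100% = no enzyme basal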
# FEN1 inh: blocks human flap endonuclease 1; P39748; Recombinant FEN1 flap cleavage, fluorescence, 15 min; Potency, µM (highest dose often 114 µM), for the others: at the highest dose activity change, negative = inhibition, usual class: inhibitors; actives 0.35% (n = 390,000); AID 588795; further: nearly all actives have a fitted effect of over 65% in size
# Target sequence (P39748 whole entry, looked up): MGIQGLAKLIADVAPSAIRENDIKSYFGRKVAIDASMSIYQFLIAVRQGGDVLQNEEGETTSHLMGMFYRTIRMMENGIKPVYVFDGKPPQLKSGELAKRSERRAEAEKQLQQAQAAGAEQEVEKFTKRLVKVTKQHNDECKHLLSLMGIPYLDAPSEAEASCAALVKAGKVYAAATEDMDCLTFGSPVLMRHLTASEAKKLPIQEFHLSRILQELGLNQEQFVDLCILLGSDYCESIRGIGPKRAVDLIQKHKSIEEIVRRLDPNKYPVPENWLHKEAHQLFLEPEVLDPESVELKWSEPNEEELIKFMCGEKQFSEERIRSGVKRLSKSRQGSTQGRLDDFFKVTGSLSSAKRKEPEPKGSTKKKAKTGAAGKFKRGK
#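 FEN1 at 10 nM, compound pretreatment for 15 min (room temperature), 50 nM final substrate to initiate; endpoint reads at 0 and 15 min; DMSO-only plates used as vehicle background.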
# An asterisk follows results filed as active; ? = inconclusive; . = no result given; [ ] = remark or other dose. The call rests on the fitted dose curve; in most records, active means well fitted curve in the direction sought with a large enough effect; inconclusive means small, poorly fitted or top-dose-only effect, or another doubt; inactive means no such curve, though single readings can be large; an effect the other way counts as inactive or inconclusive. Unless noted, on the % scale 0 is the no-effect control and ±100 the full control effect; potency means the concentration at half of the fitted maximal effect. Some of the compounds tested; most or all hits stand in other tables.
# The opening four entries, to show the layout:
FEN1 inh	N370S GC	SMILES
-11%	.	COc1ccc(-c2noc(CCC(=O)Nc3ccc(C(F)(F)F)cc3)n2)cc1
4%	2%	CC(=O)Nc1ccc(S(=O)(=O)c2ccc(N)cc2)cc1N
7%	-5%	Cc1ccc(S(=O)(=O)N2CCN(c3nc(C)c4c(c3C#N)CC(C)(C)OC4)CC2)cc1
-10%	9%	CC(NCc1cccc(OCc2ccccc2)c1)C(O)c1ccccc1 (centres undefined)

# Results, from the first entry:
FEN1 inh	N370S GC	SMILES
-11%	.	COc1ccc(-c2noc(CCC(=O)Nc3ccc(C(F)(F)F)cc3)n2)cc1
4%	2%	CC(=O)Nc1ccc(S(=O)(=O)c2ccc(N)cc2)cc1N
7%	-5%	Cc1ccc(S(=O)(=O)N2CCN(c3nc(C)c4c(c3C#N)CC(C)(C)OC4)CC2)cc1
-10%	9%	CC(NCc1cccc(OCc2ccccc2)c1)C(O)c1ccccc1 (centres undefined)
11%	-22%	Cc1cc(N2CCN(c3nc(-c4ccc([N+](=O)[O-])cc4)cs3)CC2)c2ccccc2n1
4%	-1%	COc1cccc(CN2CCNC(=O)C2CC(=O)NCCN2CCOCC2)c1OC (centres undefined)
8%	-2%	COCCCNC(=O)Cn1cnc2sc(C)c(S(=O)(=O)N3CC(C)CC(C)C3)c2c1=O (centres undefined)
-4%	13%	CS(=O)(=O)N(CC(=O)N1CCCC1)c1ccc2c(c1)OCCO2
4%	3%	CC(C(=O)O)N1C(=O)c2ccccc2C1=O (centres undefined)
3%	1%	CCO[C@@H]1OC(C(=O)O)=C[C@H](c2ccc(Br)cc2)[C@H]1CCCO
.	1%	O=C(Nc1cc(Cl)cc(Cl)c1)C(NCCCO)c1ccccc1 (centres undefined)
-4%	.	COC(=O)c1c(NC(=O)C(C)Oc2ccc(Cl)cc2Cl)sc2c1CCCC2 (centres undefined)

# One compound at a time, as listed above.
# COC(=O)c1c(NC(=O)C(C)Oc2ccc(Cl)cc2Cl)sc2c1CCCC2 (centres undefined) across the screens: FEN1 inh: -4%; N370S GC: .
# CC(=O)Nc1ccc(S(=O)(=O)c2ccc(N)cc2)cc1N across the screens: FEN1 inh: 4%; N370S GC: 2%
# CCO[C@@H]1OC(C(=O)O)=C[C@H](c2ccc(Br)cc2)[C@H]1CCCO across the screens: FEN1 inh: 3%; N370S GC: 1%

# (listing goes on)
FEN1 inh	N370S GC	SMILES
10%	?	Cc1ccc(-c2noc(C3CCCN(C(=O)c4ccc(F)cc4F)C3)n2)cc1 (centres undefined)
-5%	3%	Cc1nn(-c2ccccc2)c(C)c1/C=N/NC(=O)CSc1nnc(SCc2cccc3ccccc23)s1
1%	-6%	O=[N+]([O-])c1ccc(/C=N/N/C(=N/c2ccccn2)c2ccccn2)cc1
.	-7%	COc1ccc(C(=O)C2C3C4COC(O4)C(=O)C3C3C=Cc4ccccc4N32)c(OC)c1 (centres undefined)
1%	.	COc1ccc2c(c1)CC(C(=O)NCCc1ccc(S(N)(=O)=O)cc1)CO2 (centres undefined)
3%	-5%	CCc1nnc(NC(=O)C2CCN(c3nc(C)cc(C)n3)CC2)s1
1%	-6%	CC(=O)NC(C)c1nc2ccccc2n1CC(=O)N1C(C)CCCC1C (centres undefined)
-22%	.	COC(=O)C1=C(N)Oc2cc(C)n(CC3CCCO3)c(=O)c2C1c1ccc(Cl)c(Cl)c1 (centres undefined)
0%	-8%	COc1ccc(C(=O)N(C)C2CCCN(Cc3ccccc3F)C2)cc1C (centres undefined)
-2%	23%	CC(C)=CC1C=C(C)C(C)C2C(=O)NNC(=O)C12 (centres undefined)
-15%	1%	COc1ccccc1Nc1nc2c(C)cccc2cc1C#N
-2%	2%	O=C(NC1CCSC1=O)c1cccc(Cl)c1 (centres undefined)
-9%	-9%	COc1ccc(NC(=O)C2CCN(S(=O)(=O)c3cccnc3)CC2)cc1Cl
-6%	-23%	Cc1ccc2c(=O)oc(N(C)C)nc2c1
1%	10%	C=CCC(CC=C)(NC(=O)c1ccccc1C)c1ccccc1
-11%	-3%	O=c1c2c(n3cnnc3n1-c1ccccc1)-c1ccccc1CC21CCCC1
-16%	-9%	CCOc1ccc(C2/C(=C(\O)c3ccc4c(c3)OCCO4)C(=O)C(=O)N2CCCN2CCOCC2)cc1 (centres undefined)
0%	.	CCOC(=O)c1c(NC(=O)c2cc3nc(-c4ccc(OC)cc4)cc(C(F)(F)F)n3n2)sc(C)c1C
5%	-7%[12.8 µM]	COC(=O)c1ccc(NC(=O)COc2ccc(C3C(C#N)=C(N)Oc4c3ccc3ccccc43)cc2OC)cc1 (centres undefined)
-5%	.	COc1ccc2sc(-c3ccc(SC)cc3)c(/C=C/c3ccc(OC)c(OC)c3)c2c1
4%	.	COc1ccc(Cn2c(=O)c3oc4ccccc4c3n(Cc3ccccc3)c2=O)cc1
.	4%	CC(=O)OCc1ccc2c(c1)OCO2
-1%	.	CCOc1ccccc1Nc1nnc(SCC(=O)NCC2CCCO2)s1 (centres undefined)
-4%	-3%	CO/N=C/c1ccc(Oc2ccc(C)cc2)nc1
15%	-4%	C[N+](C)(C)CCCCCC[N+](C)(C)C
21%	-1%	COCCNc1nc(C)cc(-c2cc(C(=O)NC3CCCC3)on2)n1
-10%	-2%	CN(C)S(=O)(=O)c1cccc(NC(=O)COc2nc3ccccc3nc2N2CCOCC2)c1
-7%	-5%	C=CCn1c(SCc2csc(C)n2)nc2scc(-c3ccc(C)o3)c2c1=O
-1%	-4%	CC1(C)CC(N2CCOCC2)=CC(=[N+]2CCOCC2)C1
17%	-3%	COc1ccc2nc(NC(=O)CS(=O)(=O)Cc3ccccc3)sc2c1
-14%	0%	O=C(CNC(=O)c1ccc(Cl)cc1)N/N=C/C=C/c1ccccc1
-1%	6%	c1ccc(CCCc2nc(-c3ccccn3)no2)cc1
-2%	.	O=C(Nc1ccccn1)c1ccc2c(=O)n3c(nc2c1)CCCCC3
1%	-8%	COC(=O)c1c(C)oc(C)c1S(=O)(=O)NCc1ccco1
-20%	.	O=S(=O)(NCCc1csc2nc(-c3ccccc3)nn12)c1cc(F)ccc1F
3%	-15%	CCOC(=O)CN1C(=O)C2(OCCCO2)c2cc(Br)ccc21
5%	4%	COc1cc(NC(=S)N2CCCC(CO)C2)c(OC)cc1Cl (centres undefined)
15%	.	COc1cc(NC(=O)CCCc2nnc3n(CC(C)C)c(=O)c4sccc4n23)cc(OC)c1
5%	.	Cc1ccc(Cl)cc1NC(=O)CN1C(=O)CSc2ccc(S(=O)(=O)N3CCCC3)cc21
-2%	7%	O=C(O)Cc1nn(Cc2ccc(Cl)cc2)c(=O)c2ccccc12
4%	-7%	O=C(CCl)Nc1cccn2ncnc12
13%	.	CCCN1C(=O)C(O)(CC(=O)c2ccc(CC)cc2)c2ccccc21 (centres undefined)
0%	?	N#Cc1cc2c(nc1SCc1ccc(Cl)cc1)CCCC2
.	-5%	CC(C)C[C@H](N)CSSC[C@@H](N)CC(C)C
7%	6%	COc1ccc(S(=O)(=O)N(NC2=NS(=O)(=O)c3ccccc32)C(=O)C(C)C)cc1
6%	7%	COCCN1Cc2cccc(C(=O)Nc3c(C)cc(C)cc3C)c2C1=O
2%	-5%	CCOc1cc(CN2CCOCC2)cc(C(C)=O)c1
-6%	.	CC(C(=O)Nc1ccc2c(c1)OCO2)n1cnc2c1c(=O)n(C)c(=O)n2C (centres undefined)
-2%	-24%	CC1CCN(CCOCCOc2ccccc2Br)CC1
-3%	-5%	O=C(Nc1ccc(Br)cc1)c1cccc(N2C(=O)C3CCCCC3C2=O)c1 (centres undefined)
-1%	-1%	Cc1cc(C)cc(C(=O)NC(=S)Nc2ccc3[nH]c(=O)[nH]c3c2)c1
-4%	-19%	COc1ccc(OC)c(CCNC(=O)CCc2nnc3ccc(N4CCCC4)nn23)c1
18%	-2%	Cc1ccc(-n2nc3c(=O)n(C(C)C(=O)NCCc4cccs4)nc(C)c3c2C)cc1 (centres undefined)
-10%	-4%	CCOc1ccc(OCC)c(NC(=O)CSCC(=O)O)c1
-4%	.	O=C1CCc2cc(S(=O)(=O)Nc3ccccc3F)ccc2N1
3%	.	COc1ccc(Nc2cc(C(=O)NCc3ccccc3)c3ccccc3n2)c(OC)c1
-7%	8%	CCOC(=O)c1ccc(NC(=O)CC2C(=O)N(c3ccc(F)cc3)C(=O)N2CCC(C)C)cc1 (centres undefined)
1%	.	COc1ccc(S(=O)(=O)N2CCN(C(=O)[C@H](Cc3ccccc3)NC(=O)c3ccco3)CC2)cc1
-2%	1%	O=C(Nc1ccc(Br)cc1F)C1CC(=O)N(C2CCCCC2)C1 (centres undefined)
-4%	-9%	COc1cccc(C(=O)C2CCCN(C(=O)c3ccccc3Cl)C2)c1 (centres undefined)

# The list continues.
FEN1 inh	N370S GC	SMILES
-2%	6%	Cc1ccc(/C=N/NC(=O)CSc2nc3ccccc3c(=O)n2-c2ccccc2C)s1
-1%	4%	Cc1[nH]c(=O)[nH]c(=O)c1N(C)C
14%	-1%	COc1ccc(Cc2nc3ccc(C(=O)N(C)CC4COCCO4)cc3o2)cc1 (centres undefined)
-2%	2%	CCn1c(=O)c2c(nc3n2CCS3)n(C)c1=O
-13%	8%	COc1cccc(-n2c(C)nc3c(cnn3-c3ccc(C)cc3)c2=O)c1
-14%	7%	Cc1ccc2c(c1)C(=O)CC1(CCC(C(C)(C)C)CC1)O2 (centres undefined)
-15%	5%	CC1(C)S[C@@H]2[C@H](NC(=O)[C@H](N)c3ccc(O)cc3)C(=O)N2[C@H]1C(=O)O
2%	-5%	CCOc1ccc(-n2nc(C(=O)NC3CCCCC3)c3ccccc3c2=O)cc1
2%	-3%	CC(Sc1nnnn1-c1ccc(Cl)cc1)C(=O)NCC(=O)Nc1ccc(F)c(F)c1F (centres undefined)
-1%	.	O=C1OC(C(=O)Nc2nccs2)Cc2ccccc21 (centres undefined)
-17%	2%	CCOc1ccc(-n2c(SCc3ccc([N+](=O)[O-])cc3)nnc2-c2ccccc2)cc1
17%	-2%	COc1cc(CNCCN(C)C)ccc1OCc1c(F)cccc1Cl
-1%	?	CCCC1(C(=O)OC)NC(c2ccco2)C2C(=O)N(c3ccc(C)cc3)C(=O)C21 (centres undefined)
-10%	-4%	CCCOc1ccc(-c2c(C(=O)N/N=C/c3ccc(OC)cc3)nnn2-c2nonc2N)cc1
2%	-3%	C=CCOc1ccc(-c2nc3c(c(=O)[nH]c(=O)n3CCCC)n2C)cc1Br
17%	-6%	OCC1(Cc2ccccc2)CCCN(Cc2ccn[nH]2)C1 (centres undefined)
-1%	8%	CCCOc1ccc(C(CC(=O)O)NC(=O)C23CC4CC(CC(C4)C2)C3)cc1 (centres undefined)
-7%	1%	CC(OC(=O)C1=COCCO1)C(=O)Nc1ccccc1C#N (centres undefined)
0%	4%	Cn1nnnc1SCCNCc1ccccc1OCc1ccccc1
16%	1%	COC(=O)C(=C/C(C)=C/c1cccnc1)C(=O)OC
.	-7%	CCn1ncc(Cl)c1C(=O)Nc1ccc2c(c1)CCC2
-4%	.	C[C@H](CO)N1C[C@H](C)[C@@H](CN(C)CC2CCCCC2)Oc2c(NS(=O)(=O)c3cccs3)cccc2C1=O
-1%	3%	CSc1nnc(C)c(=O)[nH]1
0%	-7%	COc1ccccc1/C=N/NC(=O)c1nnn(-c2nonc2N)c1CSC1=NCCS1
4%	2%	O=S(=O)(c1ccc(Br)cc1)n1c(Cc2ccccc2)nc2ccccc21
-9%	-5%	Cc1ccc([C@@H]2CC=C(C(=O)O)[C@H](c3ccc(F)cc3)N2S(=O)(=O)c2ccc(C)cc2)cc1
-12%	-9%	CCOc1ccccc1NC(=O)NCc1ccccc1F
10%	-2%	Cc1cc(C(=O)N/N=C/c2cccc3ccccc23)c(C)o1
1%	-12%	Cc1ccc(-c2nc(CS(=O)CC(=O)NCCN(CC(C)C)CC(C)C)c(C)o2)cc1 (centres undefined)
20%	-7%	CCc1ccc(CNC(=O)C2CCCN(c3nnc(C)c4c(C)n(-c5ccccc5)nc34)C2)cc1 (centres undefined)
-10%	-1%	CCC1CCCCN1Cc1ccc(OC)c(C)c1 (centres undefined)
.	-4%	COC(=O)C(CN)c1c[nH]c2ccc(OC)cc12 (centres undefined)
-1%	0%	O=C(O)c1ccc(Nc2nc(-c3ccccc3)cs2)cc1
-2%	0%	O=C(O)CC1Oc2ccc(Cl)cc2NC1=O (centres undefined)
1%	?	Cc1nnc(NC(=O)c2cccc(F)c2)s1
-5%	5%	O=C(Nc1ccc(Cl)cn1)c1ccc2ccccc2n1
-3%	2%	Cc1cc(-c2ccccc2)[nH]c(=O)c1S(=O)(=O)c1ccccc1
2%	-3%	Cc1ccccc1Nc1c(N)c(=O)oc2ccccc12
1%	7%	COC(=O)C1(C#N)C(c2ccccc2)C1(C(=O)OC)C(=O)OC (centres undefined)
-15%	6%	O=C(O)/C=C\C(=O)Nc1ccccc1C#Cc1ccccc1
2%	5%	Cn1c(C(=O)OCC(=O)NCc2ccc(F)cc2)cc2occc21
-4%	11%	CCN1CCCC1CNC(=O)C(=O)Nc1ccc(OC)cc1 (centres undefined)
7%	11%	Cc1nc(NC(=S)NC(=O)c2cccs2)ccc1Br
-11%	-1%	CN(C)S(=O)(=O)c1cccc(NC(=O)CNCC2CCCCC2)c1
-5%	-7%	COC(=O)c1sccc1NC(=O)Nc1ccc(C)c(C)c1

# 3 structures out of the list, ordered by number of heavy atoms, rising.
FEN1 inh	N370S GC	SMILES
7%	11%	Cc1nc(NC(=S)NC(=O)c2cccs2)ccc1Br
-15%	6%	O=C(O)/C=C\C(=O)Nc1ccccc1C#Cc1ccccc1
-11%	-1%	CN(C)S(=O)(=O)c1cccc(NC(=O)CNCC2CCCCC2)c1
